Biofilm kill mix = mixtures killing C. albicans biofilm. inhibition, % at 7.6 µM. C. albicans biofilm persisters + clotrimazole, fluorescence viability; primary screen in compound mixtures of four per well. 120,000 tested, 0.02% active. AID 1242;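 active = inhibition above 30.3% in the primary screen of four-compound pools, then above 30% when the compound was retested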;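 note: compounds exposed to preformed 24 h biofilms for 48 h; the number belongs to the whole pool; some results filed as inactive read as strong as hits; inactives centre near 12; 0% = biofilm with clotrimazole alone and 100% = kill control; retested singly at about 60 µM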
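Test system: C. albicans biofilms. Buffer or medium: RPMI/MOPS medium, pH 7.0. Timing: 48 h compound exposure at 37 °C. Technique: Alamar Blue fluorescence. Evaluation: percent inhibition of biofilm viability.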
Starred values were filed as active, the others as inactive.

SMILES | Biofilm kill mix
CCC(C)c1ccc(NC(=O)C2CCN(c3ccc(C(F)(F)F)cn3)CC2)cc1 (stereo not given) | 21
CCOc1ccc(OCCOCCOc2ccccc2Cl)cc1 | 9
O=C(Nc1ccccc1)C1=C[C@H](c2ccccc2)C[C@H](OCc2ccc(CO)cc2)O1 | 19
COc1ccc(/C=C/C(=O)Oc2cc(C)[nH]c(=O)c2[N+](=O)[O-])cc1OC | 20
CC(c1ccccc1)c1nnc(N)s1 (stereo not given) | -13
Cc1ccc(C(=O)N/C(=C/c2ccc(Cl)cc2)C(=O)NCC2CCCO2)cc1 (stereo not given) | 24
COC(=O)CCC(=O)OC1(C)C(=O)C=C2C=C(C3CC3)N(c3ccccc3)C=C2C1=O (stereo not given) | 15
Cc1ccc(/C=C/C(=O)O)cc1S(=O)(=O)N1CCC(Cc2ccccc2)CC1 | 21
CCOC(=O)c1c(C)[nH]c(C(=O)COC(=O)COc2ccccc2C)c1C | 0
O=C(Nc1cc(Cl)cc(Cl)c1)c1ccc(Cn2c(=O)[nH]c3ccsc3c2=O)cc1 | 6
COc1ccc(CNc2ncnc3c2[nH]c2ccccc23)cc1 | 10
Cc1onc(-c2c(F)cccc2Cl)c1C(=O)Nc1ccccc1N1CCOCC1 | 20
CCCCc1c(C)[nH]c(C(=O)OCC)c1C | 18
N#Cc1cc(C(=O)c2ccccc2OCC(=O)Nc2ccccc2)cn(C2CCCCC2)c1=O | 13
CCCCNC(=O)COC(=O)c1cc(C)oc1C | -2
O=C(O)c1cccc(Cn2c(Cl)c(/C=N/NC(=O)c3cccc(O)c3)sc2=O)c1 | 14
COCn1c(COc2ccc3ccccc3c2)nc2ccccc21 | 12
c1csc(-c2nc(-c3ccc(-c4ccon4)s3)no2)c1 | 17
Cc1ccc(NC2=C(Cl)C(=O)OC2OC(=O)c2ccccc2)c(C)c1 (stereo not given) | 13
O=C(CN(c1ccccc1)S(=O)(=O)c1ccccc1)Nc1ccccc1C(=O)NCc1ccco1 | 10
Nc1ccccc1C(=O)NCCN1CCNC1=O | 17
CC1CCCCN1CC(=O)NC(=O)NCc1ccccc1 (stereo not given) | 10
COc1ccc(CCNC(=O)CN2C(=O)NC(C)(c3ccc([N+](=O)[O-])cc3)C2=O)cc1 (stereo not given) | 6
O=C(O)c1cc(Cl)c2c(c1)OCO2 | 10
N#Cc1cc(C(=O)c2ccccc2O)cn(-c2ccc(Cl)cc2)c1=O | -10
Additional entries
SMILES | Biofilm kill mix
Cc1ccc(C(=O)C(C)N2C(=O)NC(C)(c3ccccc3)C2=O)cc1 (stereo not given) | 12
Nc1nc(NCCOCCO)nc(NCC2CCCO2)c1[N+](=O)[O-] (stereo not given) | 13
Cc1cc(C)c2c(N=NN3CCCCC3)[nH]nc2n1 | 29
NS(=O)(=O)c1ccc(CCNC(=O)c2ccc(Cl)cc2[N+](=O)[O-])cc1 | 18
CC1CN(C(=S)SCC(=O)c2ccccc2)CC(C)O1 (stereo not given) | 10
Cc1ccc(S(=O)(=O)N(C(=O)c2ccncc2)c2ccc(OC(=O)c3ccncc3)cc2)c(C)c1 | 11
Cc1ccc(N(CC(=O)N=Nc2c(O)[nH]c3ccccc23)S(C)(=O)=O)c(C)c1 | 7
O=C(NCc1ccccc1)C1=C[C@@H](C2CC2)C[C@@H](OCCCCO)O1 | 11
O=C(NCCc1ccccn1)C(F)(F)C(F)(F)C(F)(F)C(F)(F)C(F)(F)C(F)F | 0
COC(=O)CC1C(=O)NCCN1C(=O)CSc1nc2ccccc2c(=O)n1CC(C)C (stereo not given) | 12
CC(C)c1nnc(NC(=O)CCC(=O)NC2CCCCC2)s1 | 15
O=C(c1ccc(-c2ccccc2)cc1)C1CCCN(C(=O)c2ccncc2)C1 (stereo not given) | -1
CCc1cc(C(=O)N2CCCC(C(=O)c3cccc(OC(C)C)c3)C2)n(C)n1 (stereo not given) | 8
Cc1ccc(-c2nnn(CC(=O)N(Cc3ccccc3F)C(C(=O)NC3CCCC3)c3ccncc3)n2)o1 (stereo not given) | 9
c1ccc2[nH]c3cc4ncnc4cc3nc2c1 | 16
COC(=O)c1ccc(NC(=O)c2cnc3scc(C)n3c2=O)cc1 | 12
CCOC(=O)N1CCN(C(=S)NC2CCCC2)CC1 | 21
CC(C)(C)c1ccc(NC(=O)Cn2cnc3cc([N+](=O)[O-])ccc3c2=O)cc1 | 6
COc1ccc(NC(=O)N/C=C/c2ccco2)cc1 | 1
CCN(CC)S(=O)(=O)c1cccc(NC(=O)CSc2nc3ccccc3[nH]2)c1 | 20
Cc1ccc(-c2c(C(=O)O)c(C(=O)O)c3n2CCC3)cc1 | 17
CNC(=O)CS(=O)(=O)CC(=O)Nc1cc(OC(C)C)c(Cl)cc1Cl | -5
CC(=O)N1CCc2cc(N=NC3=C(O)CC(C)(C)CC3=O)ccc21 | 15
COC(=O)c1[nH]c2ccccc2c1NC(=O)/C=C/c1ccc2c(c1)OCO2 | 7
CCn1cc(C(=O)NCc2ccncc2)c(=O)c2cc(F)c(N3CCN(C(=O)c4ccco4)CC3)cc21 | 27

Compounds above that contain sulfur, in the order listed:
SMILES | Biofilm kill mix
CC(c1ccccc1)c1nnc(N)s1 (stereo not given) | -13
Cc1ccc(/C=C/C(=O)O)cc1S(=O)(=O)N1CCC(Cc2ccccc2)CC1 | 21
O=C(Nc1cc(Cl)cc(Cl)c1)c1ccc(Cn2c(=O)[nH]c3ccsc3c2=O)cc1 | 6
O=C(O)c1cccc(Cn2c(Cl)c(/C=N/NC(=O)c3cccc(O)c3)sc2=O)c1 | 14
c1csc(-c2nc(-c3ccc(-c4ccon4)s3)no2)c1 | 17
O=C(CN(c1ccccc1)S(=O)(=O)c1ccccc1)Nc1ccccc1C(=O)NCc1ccco1 | 10
NS(=O)(=O)c1ccc(CCNC(=O)c2ccc(Cl)cc2[N+](=O)[O-])cc1 | 18
CC1CN(C(=S)SCC(=O)c2ccccc2)CC(C)O1 (stereo not given) | 10
Cc1ccc(S(=O)(=O)N(C(=O)c2ccncc2)c2ccc(OC(=O)c3ccncc3)cc2)c(C)c1 | 11
Cc1ccc(N(CC(=O)N=Nc2c(O)[nH]c3ccccc23)S(C)(=O)=O)c(C)c1 | 7
COC(=O)CC1C(=O)NCCN1C(=O)CSc1nc2ccccc2c(=O)n1CC(C)C (stereo not given) | 12
CC(C)c1nnc(NC(=O)CCC(=O)NC2CCCCC2)s1 | 15
COC(=O)c1ccc(NC(=O)c2cnc3scc(C)n3c2=O)cc1 | 12
CCOC(=O)N1CCN(C(=S)NC2CCCC2)CC1 | 21
CCN(CC)S(=O)(=O)c1cccc(NC(=O)CSc2nc3ccccc3[nH]2)c1 | 20
CNC(=O)CS(=O)(=O)CC(=O)Nc1cc(OC(C)C)c(Cl)cc1Cl | -5

More compounds.
SMILES | Biofilm kill mix
O=C(NNC(=O)c1cccs1)c1ccc(Cl)c(Cl)c1 | 12
O=C(/C=C/c1ccc(Cl)cc1)N(Cc1ccccc1)c1ccccn1 | 4
CNC(=O)/C(C#N)=C/c1ccc(-c2ccc(Cl)cc2)o1 | 18
Nc1nc(NC(=O)/C=C\C(=O)O)nn1-c1ccccc1 | 6
Clc1ccc(-c2cnc3ccccc3n2)cc1 | 8
O=C(Nc1nc2cc3c(cc2s1)OCCO3)c1ccc(N2C(=O)CCC2=O)cc1 | 24
COc1ccc(C2CN=NC2C(=O)c2ccccc2)cc1 (stereo not given) | 19
NC(=O)C1=C[C@H](c2csc3ccccc23)C[C@H](OCCCCO)O1 | 19
N#Cc1ccc(/C=C(\C(=O)C(=O)O)c2ccc3ccccc3n2)cc1 | 18
O=C(N/N=C\c1ccc(-c2ccccc2[N+](=O)[O-])o1)C1COc2ccccc2O1 (stereo not given) | 20
CCNC(=O)NC(=O)COC(=O)C1CSC2(C)CCC(=O)N12 (stereo not given) | 8
CC(=O)c1cccc(NC(=O)N2CCCC2C(=O)Nc2ccc3c(c2)OCCO3)c1 (stereo not given) | 16
CCOC(=O)C1=NOC(CNc2ncc(C(F)(F)F)cc2Cl)C1 (stereo not given) | -1
Cc1ccnc(NC(=O)C2COc3ccccc3O2)c1 (stereo not given) | 9
CCCN(CCC)CCCNC(=O)C(NS(=O)(=O)c1ccc2c(c1)CCC(=O)N2)c1ccccc1 (stereo not given) | 12
CC(C)c1nnc(NC(=O)CS(=O)(=O)Cc2ccccc2)s1 | 6
CN(C)CCCn1c(SCCN2C(=O)c3ccccc3C2=O)nc2ccccc2c1=O | 13
CC(=O)c1cccc(NC(=O)C2CC(=O)N(CCc3ccccc3)C2)c1 (stereo not given) | 14
C[C@H](NC(=O)c1[nH]cnc1C(=O)Nc1ccc(CNC(=O)OC(C)(C)C)cc1)C(=O)OCc1ccccc1 | 16
O=C(O)c1ccc(NCc2nc3ccccc3n2Cc2ccccc2F)cc1 | 15
Cc1cc(C)cc(NC(=O)N(C)Cc2ccccc2)c1 | 16
CN1CCN(CC(=O)N/N=C\c2c[nH]c3ccccc23)CC1 | 21
COC(=O)c1ccc(NC(C)C(=O)OC)c([N+](=O)[O-])c1 (stereo not given) | 15
CC1=C(C(=O)N2CCOCC2)C(c2ccc(OC(F)F)cc2)NC(=S)N1c1ccccc1 (stereo not given) | 8
NS(=O)(=O)c1ccc(NC(=O)CN2C(=O)c3ccccc3C2=O)cc1 | 23

The list goes on; it opens with the 4 that closed the last part.
SMILES | Biofilm kill mix
CN1CCN(CC(=O)N/N=C\c2c[nH]c3ccccc23)CC1 | 21
COC(=O)c1ccc(NC(C)C(=O)OC)c([N+](=O)[O-])c1 (stereo not given) | 15
CC1=C(C(=O)N2CCOCC2)C(c2ccc(OC(F)F)cc2)NC(=S)N1c1ccccc1 (stereo not given) | 8
NS(=O)(=O)c1ccc(NC(=O)CN2C(=O)c3ccccc3C2=O)cc1 | 23
CCOC(=O)C1=C(C)NC(=S)NC1c1ccc(OC(=O)c2ccco2)cc1 (stereo not given) | 15
CC(C)Cn1c(SCC(=O)N2CCCCC2)nc2ccccc2c1=O | 5
O=[N+]([O-])c1ccccc1Oc1ncccc1[N+](=O)[O-] | -5
CN1CCN(C(=O)C2CCN(c3ncc(C(F)(F)F)cc3Cl)CC2)CC1 | -4
O=c1c(C(c2ccc(Cl)cc2)c2c(O)nc3n(c2=O)CCCS3)c(O)nc2n1CCCS2 | 24
CCOCCSc1nc2c(c(-c3cccs3)c1C#N)CC/C2=C/c1cccs1 | 5
COc1ccccc1N=C1SC(C(=O)Nc2ccc(F)cc2)CC(=O)N1C (stereo not given) | 14
C1CCN(Cc2nnnn2C2CCCC2)CC1 | 11
Cc1ccc2nc(N/N=C/c3ccco3)cc(C)c2c1 | 27
CCCCNC(=O)Nc1ccccc1Br | 5
O=C(Nc1ccc2ncccc2c1)c1cc(Cl)ccc1Cl | -5
CCCS(=O)(=O)c1c(S(=O)(=O)CCC)c2c(C)cccn2c1C(=O)N/N=C/c1cc(O)cc(O)c1 | 16
NC(N)=Nc1nc(-c2ccccc2)c2ccccc2n1 | 3
CCC(C)(C(=O)NC1CCCC1)N(C(=O)CNC(=O)c1ccccc1)c1c(C)n(C)n(-c2ccccc2)c1=O (stereo not given) | 14
O=C1NC(c2ccc(Cl)cc2)=COc2ccccc21 | 5
Cn1c(SCC(=O)N/N=C/c2ccccn2)nnc1-c1ccccc1 | 10
Cc1ccc(N=CC2=C(O)CC(c3ccc(Cl)cc3)CC2=O)cc1 (stereo not given) | 8
O=[N+]([O-])c1ccc(Cl)c2c1C1C=CCC1C(c1ccccn1)N2 (stereo not given) | 14
CN(Cc1ccccc1)C(=S)Nc1cccnc1 | -11
O=C(N/N=C/c1ccc(Cl)cc1)c1cc(-c2cccnc2)nc2ccccc12 | 2
C=C1CCN([C@H](C(=O)NCc2ccc(Cl)cc2)C(C)C)S(=O)(=O)c2ccccc21 | 17
COC(=O)C(CCSC)NC(=O)c1cc2c(n(-c3ccccc3)c1=O)CCCC2=O (stereo not given) | 20
N#CC1=C(c2ccc(-c3ccccc3)cc2)COC1=O | 19
NS(=O)(=O)c1ccc(NC(=S)Nc2ccc(Br)c(Cl)c2)cc1 | 10
CC(C)C[C@@H]1NC(=O)[C@H](Cc2ccc(O)cc2)NC(=O)[C@H](CCC(N)=O)NC(=O)c2cc([N+](=O)[O-])cc(I)c2NCC[C@@H](C(N)=O)NC1=O | -3
(continued)
SMILES | Biofilm kill mix
O=C1C2C3C=CC(C2C(=O)N1c1nccs1)C1C(=O)N(c2nccs2)C(=O)C31 (stereo not given) | 18
O=C(/C=C/c1cccc([N+](=O)[O-])c1)c1ccc2c(c1)OCCO2 | 18
COC(=O)[C@@H]1C[C@@H]2CC[C@@H](O)C[C@@H]2N1Cc1ccc(Cl)cc1 | 15
CCOc1ccc(-c2c(C(=O)N/N=C/c3ccc(O)cc3)nnn2-c2nonc2N)cc1 | 8
CCOC(=O)c1cc(NC(=O)Nc2nc3ccccc3s2)c(C)nc1C | 6
Cc1ccc(S(=O)(=O)N(C)C)cc1NC(=O)CSc1nc2ccccc2[nH]1 | 8
C=CCN1C(=O)/C(=C2/Sc3ccc(OC)cc3N2C)SC1=Nc1cccc(O)c1 | 13
O=C(CN1CCN(Cc2ccccc2Cl)CC1)N/N=C/c1ccco1 | 18
COC(=O)c1cc(-c2ccccc2)c2c(=O)n(C)c(=O)n(C)c2n1 | 14
COc1ccc([N+](=O)[O-])cc1NC(=O)CC1SC(=Nc2cccc(C)c2C)N(/N=C(\C)c2ccc(C)cc2)C1=O (stereo not given) | 24
O=c1ccn([C@@H]2O[C@H](CO)[C@@H](O)[C@H]2O)c(=O)[nH]1 | 0
Nc1ncnc2c1ncn2[C@H]1C[C@H](O)[C@@H](CO)O1 | 2
CN(C)c1cccc(/C=C(\C#N)c2ccccc2)c1 | 17
O=C(Nc1ccc(Cl)c(S(=O)(=O)N2CCOCC2)c1)c1ccccc1-c1ccc(C(F)(F)F)cc1 | 11
C(#CC1CCCCC1)c1ccc2c(c1)COc1c3ccccc3nn1-2 | 14
NS(=O)(=O)c1ccc(N/C=C\C(=O)c2ccc3ccccc3c2)cc1 | 17
CC(=O)Nc1cc(C)c(S(C)(=O)=O)c(C)c1 | 16

An excerpt. The share of hits here may be higher or lower than overall.
